A1 inh: inhibitors of the anti-apoptotic protein A1, read as caspase activation; MEF A1-2A-BIM cells, Caspase-Glo 3/7 luminescence, 3 h; percent of clofoctol response, vehicle zero; hit rate 0.066% among 330,000; caspase activation, % (test concentration not listed);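 active = over half of replicate activation scores above 10%, or exactly half above 10 with the replicate mean above 10; inconclusive = replicate mean below 10 yet half the replicates above 10; inactive = over half of replicates below 10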;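 also: wells of about 30 µL received 50 nL stock; many hits fall short of the cut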
Ecoli rRNA inh: selective bacterial rRNA inhibition in E. coli; E. coli WT GFP vs humanized-ribosome RFP mutants, fluorescence, 24 h; hits give low values; DMSO median 0, no signal -100; GFP signal change (wild-type ribosome), % (concentration not given with the values); hit rate 1.6% among 350,000; AID 720706;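 active = significant combined selectivity score with lowered wild-type GFP, culture density cut under 30%, mutant RFP and density less affected; inactive = any of these conditions unmet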; also: one replicate is shown; some compounds called inactive have numbers as strong as hits
Beta apoptosis: beta cell apoptosis inhibition | INS-1E cytokine-induced death, ATP luminescence, 48 h; percent of positive-control rescue, neutral wells zero | protection from apoptosis, % (test concentration not listed) | hit rate 0.8% among 300,000;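 active = all replicates at 75% or more, or half of them and the mean; inconclusive = half reach 75% but not the mean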;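 also: 0% = cytokine-treated negative control wells and 100% = positive control rescue; higher means more ATP so stronger rescue from cytokine killing; wells of about 40 µL received 100 nL stock; the first replicate is given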
AF4-AF9 inh: blocks AF4 peptide binding to human AF9; P42568; AlphaScreen, biotin-AF4 peptide binding to FLAG-AF9; inhibition, % at 10 µM; hit rate 0.47% among 350,000;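 active = every replicate reaching a set inhibition limit, whatever the replicate mean, cut at about 25% in these data; inconclusive = mean inhibition reaches that limit but some replicates miss it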;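 also: 0% = plate neutral control median and 100% = total signal loss; the record names both 10 and 1 µM as test concentration; the first replicate is given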
Target sequence (P42568 whole entry, looked up): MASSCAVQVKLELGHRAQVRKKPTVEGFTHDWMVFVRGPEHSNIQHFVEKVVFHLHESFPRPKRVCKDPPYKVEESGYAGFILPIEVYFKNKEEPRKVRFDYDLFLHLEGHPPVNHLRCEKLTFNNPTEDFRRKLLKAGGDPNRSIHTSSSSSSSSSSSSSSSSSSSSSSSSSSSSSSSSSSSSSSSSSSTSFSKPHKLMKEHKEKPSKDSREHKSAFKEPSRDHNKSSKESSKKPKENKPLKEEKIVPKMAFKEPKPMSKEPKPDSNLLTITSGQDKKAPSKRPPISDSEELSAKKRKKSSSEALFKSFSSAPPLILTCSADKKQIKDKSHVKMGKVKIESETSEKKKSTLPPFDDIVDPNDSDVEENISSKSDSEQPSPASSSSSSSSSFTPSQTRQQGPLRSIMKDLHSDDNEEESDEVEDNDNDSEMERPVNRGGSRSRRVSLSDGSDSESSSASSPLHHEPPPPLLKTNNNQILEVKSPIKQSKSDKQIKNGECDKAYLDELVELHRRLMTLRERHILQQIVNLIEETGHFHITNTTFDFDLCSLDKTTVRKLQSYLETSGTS
RanGTP-Impb inh: disruptors of Ran-importin-beta complex formation – biochemical, FRET, CFP-Ran, YFP-importin-beta, homogeneous, primary screen; inhibition, % (no concentration beside the values); hit rate 1.1% among 300,000; cell-free CFP-Ran/YFP-importin-beta FRET ratio; AID 2216;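 active = most replicates above 15%; inconclusive = exactly half above 15%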;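 also: 0% = DMSO wells and 100% = Ran loaded with GDP instead of GTP; wells of about 40 µL received 100 nL stock; the first replicate is given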
Calb FLC: C. albicans growth modulation with fluconazole; hit rate 0.57% among 300,000; AID 1979; growth inhibition, % (test concentration not listed); C. albicans CaCi-2 (fluconazole-resistant clinical isolate) + fluconazole, Alamar Blue growth, 48 h;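 active = most replicates above 75%; inconclusive = exactly half above 75%; inactive = most below 75%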;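 also: all wells also contain fluconazole at 8 µg/ml as a sub-toxic cotreatment; 0% = median of DMSO wells and 100% = median of geldanamycin control wells; wells of about 8 µL received 7.5 nL stock; the first replicate is given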
Vif A3G: HIV-1 Vif–A3G interaction blockers – biochemical, TR-FRET, GST-Vif 1-94, biotin-A3G peptide, dose response retest, primary screen (AID 1117319) | inhibition, %, or IC50 in µM where a hit was titrated | hit rate 0.57% among 260,000 | TR-FRET GST-Vif / biotin-A3G peptide binding; higher % means a stronger effect; test concentration not given here; strong numbers were not always called active;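 active = above the screen mean plus three standard deviations and confirmed in dose response; inconclusive = results disagree or hit not tested in dose response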;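 also: Vif residues 1-94 fused to GST binding biotinylated APOBEC3G peptide 110-148; 0% = full assay without inhibitor and 100% = GST in place of GST-Vif; retest series ran down from 100 µM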
T cruzi repl: blocks replication of Trypanosoma cruzi; AID 1885; inhibition, % (no concentration beside the values); T. cruzi beta-gal in NIH3T3, luminescence, 90 h; hit rate 1.4% among 300,000;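 active = mean inhibition across valid replicates above about 55%, limit read from the data; inconclusive = mean below that limit but half or more replicates reach it; inactive = mean below it, under half of replicates reach it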;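 also: signal also drops with host cell toxicity which is not excluded here; 0% = plate median of DMSO wells and 100% = zero luminescence signal; higher percent means less beta-gal luminescence so fewer parasites; stock transfer was 50 nL into about 50 µL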
Ecoli rRNA inh OD600: also measured in Ecoli rRNA inh; calls as there; OD600 change, %; measured here: OD600 growth;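 optical density of the mix in the first replicate; 0 = DMSO median and -100 = no signal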
Ecoli rRNA inh RFP: second read-out of Ecoli rRNA inh, no call of its own (marks repeat the call); RFP signal change, %; measured here: RFP humanized mutant strains;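 first replicate; 0 = DMSO median and -100 = no signal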
The depositor's hits bear a star; ? = inconclusive; nt = no result given.

Compound | A1 inh | Ecoli rRNA inh | Ecoli rRNA inh OD600 | Ecoli rRNA inh RFP | Beta apoptosis | AF4-AF9 inh | RanGTP-Impb inh | Calb FLC | Vif A3G | T cruzi repl
Cc1ccc(NS(=O)(=O)c2csc(C(N)=O)c2)cc1C | -0.5 | 4 | 1 | 1.5 | -4 | 1.9 | -1.9 | -2 | -5% | 4
CCOC(=O)N1CCC(NC(=O)c2cn(-c3ccc(OC)cc3)c(=O)c3ccccc23)CC1 | ? | nt | nt | nt | -1 | nt | 8.1 | ? | -3% | -3
COc1ccccc1-c1nn(Cc2ccccc2)cc1C(=O)N1CCN(c2ncccn2)CC1 | 0.1 | -10 | -11 | 0.6 | -1 | 1.5 | nt | nt | nt | nt
CCOC(=O)C1(C)/C(=N/Nc2ccc(Cl)cc2)C(=O)C(=O)N1c1ccccc1 (centres undefined) | 0.5 | nt | nt | nt | nt | nt | -1.6 | -4 | 3% | 24
COc1ccccc1C1CC(c2cccs2)=Nc2ccccc2S1 (centres undefined) | -1.1 | nt | nt | nt | 3 | nt | 4.0 | -5 | 3% | 14
Cc1cc2c(cc1S(=O)(=O)Nc1cccc(F)c1)n(C)c(=O)c(=O)n2C | -0.2 | -2 | -5 | -2.6 | 3 | -2.4 | -0.4 | 8 | -2% | 1
c1ccc2nc3ccccc3nc2c1 | -1.3 | nt | nt | nt | -1 | -0.6 | 3.6 | 2 | -4% | -5
Cc1cccc(C)c1NC(=O)CN(C)C(=O)c1cc(S(=O)(=O)N2CCOCC2)ccc1N1CCCC1 | -0.7 | 5 | 4 | -1.2 | 12 | -22 | -1.0 | 5 | 3% | 3
COc1ccccc1NC(=O)COC(=O)C12CC3CC(CC(Br)(C3)C1)C2 | -1.5 | 0 | 2 | 0.6 | -4 | -4.1 | nt | nt | nt | nt
O=C(CCCOc1ccc(Cl)cc1Cl)N/N=C/c1ccco1 | 0.2 | -1 | -12 | -0.7 | -7 | -5.2 | 3.6 | -10 | 0% | 8
Cc1ccc(O)c(C(CC(=O)NCc2ccco2)c2ccccc2)c1 (centres undefined) | -0.1 | -11 | -14 | -1.0 | -3 | 3.8 | 1.8 | 17 | 5% | -4
CCOC(=O)c1[nH]c(C)c(C(=O)Nc2ccc(Cl)cc2)c1C | -0.1 | 9 | 4 | 2.0 | 3 | 0.0 | -2.4 | -7 | -2% | -2
C[C@@H](NC(=O)c1nc[nH]c1C(=O)NCc1ccccc1)c1ccccc1 | -0.1 | -15 | -42 | 13 | -2 | 1.1 | nt | nt | nt | nt
O=C(N/N=C/c1cccc(Br)c1)c1ccc(Br)cc1 | -3.1 | 10 | -5 | 5.5 | 10 | -0.8 | -4.2 | 24 | 0% | 10
COc1ccc(CCNC(=O)CSc2nnnn2-c2ccccc2)cc1 | -0.1 | nt | nt | nt | -3 | nt | 2.3 | -17 | 3% | 9

Grouped by structure: those above containing an aryl methoxy group (five)
Compound | A1 inh | Ecoli rRNA inh | Ecoli rRNA inh OD600 | Ecoli rRNA inh RFP | Beta apoptosis | AF4-AF9 inh | RanGTP-Impb inh | Calb FLC | Vif A3G | T cruzi repl
CCOC(=O)N1CCC(NC(=O)c2cn(-c3ccc(OC)cc3)c(=O)c3ccccc23)CC1 | ? | nt | nt | nt | -1 | nt | 8.1 | ? | -3% | -3
COc1ccccc1-c1nn(Cc2ccccc2)cc1C(=O)N1CCN(c2ncccn2)CC1 | 0.1 | -10 | -11 | 0.6 | -1 | 1.5 | nt | nt | nt | nt
COc1ccccc1C1CC(c2cccs2)=Nc2ccccc2S1 (centres undefined) | -1.1 | nt | nt | nt | 3 | nt | 4.0 | -5 | 3% | 14
COc1ccccc1NC(=O)COC(=O)C12CC3CC(CC(Br)(C3)C1)C2 | -1.5 | 0 | 2 | 0.6 | -4 | -4.1 | nt | nt | nt | nt
COc1ccc(CCNC(=O)CSc2nnnn2-c2ccccc2)cc1 | -0.1 | nt | nt | nt | -3 | nt | 2.3 | -17 | 3% | 9

(cont.)
Compound | A1 inh | Ecoli rRNA inh | Ecoli rRNA inh OD600 | Ecoli rRNA inh RFP | Beta apoptosis | AF4-AF9 inh | RanGTP-Impb inh | Calb FLC | Vif A3G | T cruzi repl
Cc1ccc(Cn2nnnc2CN2CCC(O)(c3cccnc3)CC2)cc1 | -0.1 | -5 | -5 | -2.4 | -8 | 0.6 | -0.3 | -6 | -4% | 3
COc1cc(C(c2c(C)n(C)n(-c3ccccc3)c2=O)c2c(C)n(C)n(-c3ccccc3)c2=O)cc(Br)c1O | 0.1 | 10 | 3 | 0.9 | -1 | 0.0 | 1.9 | 21 | nt | -2
COc1cc(-c2nc(CN3CCN(C(=O)c4ccco4)CC3)c(C)o2)ccc1F | 0.3 | 13 | 4 | 0.4 | 2 | -0.8 | 1.7 | 0 | -5% | -1
Nc1cc(=O)nc(SCc2ccccc2)n1Cc1ccco1 | 0.3 | nt | nt | nt | 1 | nt | 2.1 | 34 | 4% | -2
COc1cccc(Cn2c(NCc3ccco3)nc3c2c(=O)n(C)c(=O)n3C)c1 | 0.0 | nt | nt | nt | 95* | nt | 3.3 | -2 | 5% | 38
COc1nc(NCCO)nc(Nc2ccc([N+](=O)[O-])cc2)n1 | 0.0 | nt | nt | nt | 3 | nt | 7.3 | -3 | nt | 1
Cc1cccc(C)c1NS(=O)(=O)c1ccc(F)cc1 | -0.1 | nt | nt | nt | -3 | nt | 2.0 | 9 | 3% | -16
O=C(/C=C/c1ccccc1)NC(=S)Nc1ccc(N2CCOCC2)c(Cl)c1 | 1.8 | -1 | 4 | -0.1 | -3 | 1.4 | 3.9 | 111* | 2% | 1
Cc1ccc(C(=O)N2CCN(S(=O)(=O)c3ccccc3[N+](=O)[O-])C2)cc1 | 0.5 | 6 | 7 | -1.0 | -7 | 4.6 | 2.1 | 7 | 2% | -9
COC(=O)[C@@]1(Cc2ccc(F)cc2)[C@H]2c3cc(C(=O)N(C)C)n(Cc4ccccn4)c3C[C@H]2CN1C(=O)c1ccccc1 | -1.4 | 17 | 8 | -1.7 | -9 | 5.3 | nt | nt | -3% | nt
CC(C)c1ccc(NCCC(=O)c2ccc(Br)cc2)cc1 | -1.0 | nt | nt | nt | -2 | nt | -1.9 | -9 | nt | 4
COc1cccc(-c2nc(CC(=O)O)cs2)c1OC | 0.7 | nt | nt | nt | -3 | nt | -1.8 | -1 | 27% | -4
CCCNC(=O)c1ccccc1NC(=O)CN(c1ccccc1OCC)S(C)(=O)=O | 0.1 | nt | nt | nt | -2 | nt | -1.1 | 7 | -11% | 4
CCC[C@@H]1C[C@@H](C(=O)NC(C(C)Cl)[C@H]2O[C@H](SC)[C@H](O)[C@@H](O)[C@H]2O)N(C)C1 (some centres undefined) | 0.5 | nt | nt | nt | 1 | -14 | 1.1 | nt | nt | 7
CCSc1ccc(-c2ccc(C)cc2)nn1 | nt | 2 | 2 | -0.9 | nt | -26 | 0.3 | -24 | 9% | -10

Remaining list, next part
Order of values – A1 inh	Ecoli rRNA inh	Ecoli rRNA inh OD600	Ecoli rRNA inh RFP	Beta apoptosis	AF4-AF9 inh	RanGTP-Impb inh	Calb FLC	Vif A3G	T cruzi repl
> CSc1ncc(C(=O)Nc2ccc(Cl)cc2)c(C)n1
  -0.4	8	-3	-2.2	-9	-14	-1.4	2	0%	10
> CCOc1ccc(NC(=O)CNC(=O)c2ccc(OC)c(OC)c2)cc1
  -0.6	nt	nt	nt	2	nt	6.8	4	-2%	-7
> CN(CC(=O)Nc1ccc(Cl)c(C(F)(F)F)c1)C(=O)Cc1cccs1
  -0.4	-34	-37	16	3	-1.0	-2.1	-21	0%	20
> COc1ccc(CN2CCC(n3nccc3NC(=O)C3CC3)CC2)c(Cl)c1OC
  0.5	1	7	-3.3	2	-1.8	2.4	-30	8%	5
> S=c1[nH]ccn1-c1cccc(Cl)c1
  2.2	nt	nt	nt	nt	2.8	-14	2	8%	-23
> O=S(=O)(N/N=C/c1ccc(F)cc1)c1ccccc1
  -0.2	5	2	-1.2	-3	-3.3	1.6	-1	-4%	2
> CCc1ccccc1OCC(=O)Nc1ccc2c(c1)OCCO2
  -0.1	-19	-30	1.2	5	-2.4	?	-8	nt	-3
> O=C(CSc1nnnn1C1CCCCC1)NCCc1ccccc1
  0.5	-28*	-22*	-4.9*	-5	9.0	-1.6	10	3%	3
> Cc1ccc(C)c(S(=O)(=O)N2CCN(c3nc(CN4CCOCC4)nc4sc(C)c(C)c34)CC2)c1
  -1.3	-29	-53	-0.6	14	10	nt	nt	-1%	nt
> CCC(C)[C@H]1CNC(=O)C(=O)N1CCCc1cc(OC)c(OC)c(OC)c1 (some centres undefined)
  1.1	-1	-1	0.0	-6	-1.0	-1.2	-2	-2%	-10
> Cc1cc(C)cc(C(=O)NC(CC(N)=O)c2ccc(NC3CCCCCCC3)c([N+](=O)[O-])c2)c1 (centres undefined)
  -0.3	5	12	-1.2	-4	-0.4	-2.7	-11	nt	4
> CCO/C=C1\C(=O)N(CC)c2ccccc21
  0.7	nt	nt	nt	-8	nt	2.3	25	3%	-11
> CCOc1ccc2nc(SCC(=O)NC3CCCCC3)[nH]c2c1
  -0.1	-12	-18	2.6	4	-6.7	2.9	4	nt	7
> CCOC(=O)CSc1nnc(C)c(=O)[nH]1
  0.2	nt	nt	nt	-3	nt	1.0	-11	1%	-2
> CC(=O)n1nc(-c2ccco2)nc1SCc1ccccc1
  0.2	nt	nt	nt	-9	nt	-3.5	-7	14%	-8
> CCN(CC)S(=O)(=O)c1cccc(-c2nnc(SCC(=O)NCCC3=CCCCC3)n2N)c1
  2.3	nt	nt	nt	-14	nt	-1.4	-13	-3%	-8
> O=C(COC(=O)CNC(=O)c1cccc([N+](=O)[O-])c1)Nc1cccc(S(=O)(=O)N2CCCC2)c1
  0.5	nt	nt	nt	-7	nt	3.7	0	-5%	4
> O=C(CN1C(=O)COc2ccccc21)Nc1ccc(F)cc1
  0.0	-2	7	3.5	-17	0.5	?	4	?	-44
> CCN(CCn1cccn1)C(=O)c1cc(COc2ccccc2SC)on1
  -1.4	-9	-11	-2.1	-3	0.4	0.8	14	nt	3
> CC(Sc1nccn1C)C(=O)c1c(N)n(C)c(=O)n(C)c1=O (centres undefined)
  0.6	6	7	-0.6	-12	1.3	nt	-14	4%	-4
> COC(=O)c1cccc(NC(=O)/C=C/c2cccc([N+](=O)[O-])c2)c1
  -0.3	23	14	1.3	6	3.1	6.3	5	22%	-5
> CC1CCCC(C)N1C(=O)CSc1nc2ccccc2c(=O)[nH]1 (centres undefined)
  0.9	-15	-16	0.0	-4	-3.6	-0.3	-30	-4%	-4

Screening results from PubChem.

These rows are one share of the data. The share of hits here may be higher or lower than overall.
